Assay outcomes: PubChem, Broad Institute
Vaccinia inh: blocks a specific stage of Vaccinia orthopoxvirus infection; 0.01% of 89,000 active; AID 1053133; Vaccinia-infected cells, mCherry/Venus stage reporter fluorescence; hits give low values; some inactives read as strong as hits; activity change (mCherry), % (test concentration not listed);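 active = mCherry past -33% and 40 or more points under the early reporter, replicates agreeing; inconclusive = past -33% without that gap or agreement; tested in A549 cells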;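 note: scaled between vehicle wells and reference inhibitor wells; 23 nL library stock went into each well; one replicate is shown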
Vaccinia inh Venus: further read-out of Vaccinia inh, marked with its call; activity change (Venus), %; measured here: Venus reporter, other viral stage;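 negative = less Venus signal; first of two replicates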
* = called active by the depositor; ? = inconclusive; · = not tested or not shown. These rows are one share of the data, so the mix of outcomes need not match the whole.

Results follow in this order: Vaccinia inh	Vaccinia inh Venus
Cc1ccccc1-c1cnc2c(c1)C(=O)N([C@@H](C)CO)C[C@@H](C)[C@H](CN(C)CC1CCOCC1)O2
→ -11	-7
COCC(=O)N1C[C@H]2[C@@H](c3ccccc31)[C@H](CO)N2C(=O)C1CCCC1
→ 17	22
C/C=C/c1ccc([C@H]2[C@@H](CO)N3CCCCN(S(=O)(=O)c4ccc(OC)cc4)C[C@H]23)cc1
→ ?	·
COc1ccc(NC(=O)N(C)C[C@@H]2Oc3ccc(NC(=O)Nc4ccc5c(c4)OCO5)cc3C(=O)N([C@H](C)CO)C[C@H]2C)cc1
→ 7	2
Cc1ccccc1-c1ccc2c(c1)O[C@@H](CN(C)C(=O)c1ccccn1)[C@H](C)CN([C@H](C)CO)S2(=O)=O
→ 2	6
COc1ccc2c3c(n(C)c2c1)[C@@H](CO)NCC31CN(S(=O)(=O)c2ccccc2)C1
→ -8	-11
CCNC(=O)[C@H]1[C@H](CO)[C@H]2Cn3c(ccc(-c4cccc(F)c4)c3=O)[C@H]2N1C(=O)Cc1cccnc1
→ 5	3
CN(C)C(=O)c1ccc(-c2ccc([C@@H]3[C@@H](CO)N4C(=O)CN(C(=O)C5CCC5)C[C@H]34)cc2)cc1
→ 10	2
COc1cccc(-c2ccc([C@H]3[C@H]4CN(C(=O)C5CCC5)CC(=O)N4[C@H]3CO)cc2)c1
→ -24	-25
O=C(NCc1nc2ccccc2[nH]1)C1=C[C@H](C2CC2)C[C@H](OCCCCO)O1
→ 10	10
O=C(c1ccc(F)cc1)N1CC(=O)N2[C@H](CO)[C@@H](c3ccc(-c4cccnc4)cc3)[C@H]2C1
→ 12	-19
Cc1ccc(S(=O)(=O)Nc2ccc3c(c2)C(=O)N([C@@H](C)CO)C[C@@H](C)[C@@H](CN(C)Cc2ccncc2)O3)cc1
→ 3	2
C[C@@H]1CN([C@H](C)CO)C(=O)Cc2cc(NC(=O)C3CCCCC3)ccc2O[C@@H]1CN(C)C(=O)Nc1ccccc1
→ ?	·
CN1C(=O)c2cc(NS(C)(=O)=O)ccc2OC[C@@H]2O[C@@H](CC(=O)NCc3ccccc3)CC[C@H]21
→ 14	8
COc1ccc2c3c(n(C)c2c1)[C@H](CO)N(C(=O)CN1CCOCC1)CC31CCN(Cc2ccncc2)CC1
→ 6	1
COc1ccc(NC(=O)Nc2ccc3c(c2)C(=O)N([C@@H](C)CO)C[C@@H](C)[C@H](CN(C)C(=O)CCC(F)(F)F)OCCCC[C@@H](C)O3)cc1
→ 0	-3
COc1ccc(CN(C)C[C@H]2Oc3ccc(NS(=O)(=O)c4ccccc4)cc3CC(=O)N([C@H](C)CO)C[C@@H]2C)cc1
→ 1	3
COc1ccc(C#Cc2ccc([C@H]3[C@H](CO)N4C(=O)CN(C(=O)c5ccncc5)C[C@@H]34)cc2)cc1
→ 16	-3
CN(C)C(=O)c1ccc(-c2ccc3c(c2)[C@H]2[C@H](CCN2C(=O)Cc2ccccn2)[C@H](CO)N3C)cc1
→ 2	5
C[C@@H]1CN([C@@H](C)CO)C(=O)c2cc(NS(=O)(=O)c3cn(C)cn3)ccc2O[C@H]1CN(C)C(=O)Nc1ccccc1
→ 1	-6

The closing 7 entries of the part above lead into the next:
Results follow in this order: Vaccinia inh	Vaccinia inh Venus
CN1C(=O)c2cc(NS(C)(=O)=O)ccc2OC[C@@H]2O[C@@H](CC(=O)NCc3ccccc3)CC[C@H]21
→ 14	8
COc1ccc2c3c(n(C)c2c1)[C@H](CO)N(C(=O)CN1CCOCC1)CC31CCN(Cc2ccncc2)CC1
→ 6	1
COc1ccc(NC(=O)Nc2ccc3c(c2)C(=O)N([C@@H](C)CO)C[C@@H](C)[C@H](CN(C)C(=O)CCC(F)(F)F)OCCCC[C@@H](C)O3)cc1
→ 0	-3
COc1ccc(CN(C)C[C@H]2Oc3ccc(NS(=O)(=O)c4ccccc4)cc3CC(=O)N([C@H](C)CO)C[C@@H]2C)cc1
→ 1	3
COc1ccc(C#Cc2ccc([C@H]3[C@H](CO)N4C(=O)CN(C(=O)c5ccncc5)C[C@@H]34)cc2)cc1
→ 16	-3
CN(C)C(=O)c1ccc(-c2ccc3c(c2)[C@H]2[C@H](CCN2C(=O)Cc2ccccn2)[C@H](CO)N3C)cc1
→ 2	5
C[C@@H]1CN([C@@H](C)CO)C(=O)c2cc(NS(=O)(=O)c3cn(C)cn3)ccc2O[C@H]1CN(C)C(=O)Nc1ccccc1
→ 1	-6
C[C@H](CO)N1C[C@H](C)[C@@H](CN(C)S(=O)(=O)c2cccs2)Oc2c(NC(=O)C3CC3)cccc2C1=O
→ 6	6
N#C[C@H]1[C@H](c2ccc(-c3cccc(F)c3)cc2)[C@@H](CO)N1C(=O)NC1CCCCC1
→ ?	·
C[C@@H]1CN([C@@H](C)CO)C(=O)c2cc(NS(=O)(=O)c3ccccc3)ccc2O[C@H]1CN(C)S(=O)(=O)c1cn(C)cn1
→ 42	31
C[C@H]1CN([C@@H](C)CO)C(=O)c2cccc(NS(=O)(=O)c3ccc(Cl)cc3)c2O[C@H]1CN(C)S(=O)(=O)c1cccs1
→ 3	1
C[C@@H]1CCCCO[C@@H](CN(C)S(=O)(=O)c2cn(C)cn2)[C@H](C)CN([C@H](C)CO)C(=O)c2cc(NS(C)(=O)=O)ccc2O1
→ 7	10
COc1cc(CO)cc(I)c1O[C@H]1C=C(C(=O)NCCO)C[C@@H](N(C(=O)c2cc3ccccc3oc2=O)C2CCCCCC2)[C@@H]1O
→ 1	-1
C[C@H](CO)N1C[C@H](C)[C@H](CN(C)CC2CC2)Oc2ccc(NC(=O)Nc3ccc(F)cc3)cc2CC1=O
→ -9	-5
CNC[C@@H]1Oc2ncc(C#Cc3ccc(F)cc3)cc2C(=O)N([C@H](C)CO)C[C@@H]1C
→ -9	-4
C[C@@H]1CN([C@@H](C)CO)C(=O)c2cc(C#CCN(C)C)cnc2O[C@H]1CN(C)S(C)(=O)=O
→ 34	21
CCC(=O)N1C[C@H](C)[C@@H](OC)CN(C)C(=O)c2cc(NC(=O)Nc3ccccc3)ccc2OC[C@H]1C
→ -11	-1
CO[C@@H]1CN(C)C(=O)c2ccc(NS(=O)(=O)c3ccccc3C)cc2OC[C@@H](C)N(S(C)(=O)=O)C[C@H]1C
→ -3	10
CN(C)C(=O)c1ccc(-c2ccc3c(c2)[C@H]2[C@H](CCN2C(=O)C2CCCC2)[C@H](CO)N3C)cc1
→ 10	8
C[C@H]1CN([C@@H](C)CO)C(=O)Cc2cc(N(C)C)ccc2O[C@@H]1CN(C)S(=O)(=O)c1ccc(F)cc1
→ 3	6
C[C@H](CO)N1C[C@H](C)[C@H](CN(C)S(=O)(=O)c2ccccc2)OCCCC[C@H](C)Oc2ccc(NC(=O)c3ccncc3)cc2C1=O
→ -3	-11
C[C@@H]1CN([C@@H](C)CO)C(=O)c2cc(NC(=O)NC3CCCCC3)ccc2O[C@@H]1CN(C)S(=O)(=O)c1cccs1
→ 1	-1
C[C@@H]1CN([C@@H](C)CO)C(=O)c2cc(-c3cccc(F)c3)cnc2O[C@H]1CN(C)Cc1cccnc1
→ 5	-4
CO[C@@H]1CN(C)C(=O)c2cc(NC(=O)C3CC3)ccc2OC[C@H](C)N(C(=O)c2cccnc2)C[C@H]1C
→ 0	-8
CCCNC(=O)C[C@@H]1C[C@@H]2c3cc(NC(=O)C4CCOCC4)ccc3O[C@@H]2[C@@H](CO)O1
→ 7	4
C[C@@H]1CN([C@H](C)CO)C(=O)c2cc(C#CC3CCCCC3)cnc2O[C@H]1CN(C)Cc1cccnc1
→ ?	-17
COc1ccc(CN(C)C[C@H]2OCCCC[C@H](C)Oc3ccc(NC(=O)CCCN(C)C)cc3C(=O)N([C@@H](C)CO)C[C@@H]2C)cc1
→ 4	5
Cc1ccccc1-c1cnc2c(c1)C(=O)N([C@@H](C)CO)C[C@H](C)[C@@H](CN(C)C(=O)c1ccncc1)O2
→ -4	0
CCC(=O)N1CC(=O)N2[C@H](CO)[C@H](c3ccc(C#CCC(C)C)cc3)[C@@H]2C1
→ 0	6
C[C@H](CO)N1C[C@H](C)[C@H](CN(C)C(=O)Nc2cccc(F)c2)Oc2ncc(C#CCN(C)C)cc2C1=O
→ 1	1
Cc1ccc(S(=O)(=O)N(C)C[C@H]2Oc3cc(-c4cccc(F)c4)ccc3S(=O)(=O)N([C@@H](C)CO)C[C@@H]2C)cc1
→ ?	·
CO[C@@H]1CN(C)C(=O)c2cc(NC(=O)CC(F)(F)F)ccc2OC[C@@H](C)N(C(=O)C2CC2)C[C@@H]1C
→ 12	14
C[C@@H]1CN([C@@H](C)CO)C(=O)CCCn2nncc2CO[C@H]1CN(C)C(=O)c1cc(-c2ccccc2)on1
→ 9	-2
C[C@@H]1CN([C@H](C)CO)C(=O)c2cc(NS(=O)(=O)c3ccc(Cl)cc3)ccc2O[C@@H]1CN(C)Cc1ccc(-c2ccccc2)cc1
→ ?	·
O=C(C1CC1)N1CC2(C1)[C@H](c1ccccc1)[C@H](CO)N2Cc1nccs1
→ 6	24
C[C@@H]1CN([C@H](C)CO)S(=O)(=O)c2ccc(C3=CCCCC3)cc2O[C@@H]1CN(C)C(=O)CN(C)C
→ ?	·
C[C@@H]1CCCCO[C@@H](CN(C)S(C)(=O)=O)[C@H](C)CN([C@H](C)CO)C(=O)c2cc(NC(=O)Nc3ccc(C(F)(F)F)cc3)ccc2O1
→ -3	-11
C[C@H](CO)N1C[C@H](C)[C@H](CN(C)C(=O)c2ccc(F)cc2)OCc2ccccc2-c2ccccc2C1=O
→ 9	2
CS(=O)(=O)N1[C@@H]2Cn3c(ccc(C4=CCCC4)c3=O)[C@H]1[C@@H](C(=O)N1CCCCC1)[C@@H]2CO
→ 7	7
COc1cccc(-c2ccc3c(c2)O[C@H](CN(C)Cc2cccnc2)[C@H](C)CN([C@H](C)CO)S3(=O)=O)c1
→ ?	·
COCC(=O)Nc1ccc2c(c1)C(=O)N(C)[C@@H]1CC[C@H](CC(=O)NCc3ccccc3)O[C@H]1CO2
→ 8	13
C[C@H]1CN([C@@H](C)CO)S(=O)(=O)c2ccc(-c3cncnc3)cc2O[C@@H]1CN(C)C(=O)c1cccc(F)c1
→ 0	1
COCC(=O)N(C)C[C@@H]1Oc2cc(-c3ccc(OC)cc3)ccc2S(=O)(=O)N([C@@H](C)CO)C[C@H]1C
→ -2	-2
COC(=O)C[C@@H]1CC[C@@H]2[C@@H](COc3ccc(NC(=O)c4cccc(Cl)c4)cc3C(=O)N2C)O1
→ -19	-9
CCC(=O)N(C)C[C@H]1Oc2ncc(-c3ccccc3OC)cc2C(=O)N([C@H](C)CO)C[C@H]1C
→ 12	6
Cn1cnc(S(=O)(=O)N2CC[C@@H]3[C@H]2c2cc(C#Cc4ccccc4F)ccc2N[C@@H]3CO)c1
→ -7	-11
O=C(C[C@@H]1CC[C@@H]2[C@H](COC[C@H](O)CN2S(=O)(=O)c2ccccc2F)O1)NCc1ccccc1Cl
→ -6	-12
O=C(N[C@@H]1CC[C@H](CCn2cc(Cc3ccccc3)nn2)O[C@H]1CO)c1ccccn1
→ 7	12
CC(C)NC(=O)N1C[C@H]2[C@@H](c3ccccc31)[C@H](CO)N2Cc1ccccn1
→ 4	-1
COc1ccc(NC(=O)Nc2cccc3c2O[C@H](CN(C)C(=O)NC(C)C)[C@@H](C)CN([C@@H](C)CO)C3=O)cc1
→ 9	0
CO[C@H]1CN(C)C(=O)c2cc(NC(=O)Nc3cc(F)ccc3F)ccc2OC[C@@H](C)N(C(=O)c2ccccn2)C[C@H]1C
→ 6	0
CC(=O)N(C)C[C@H]1[C@H](c2ccc(-c3ccccc3)cc2)[C@@H](CO)N1C(=O)C1CC1
→ -1	10
O=C(C[C@@H]1CC[C@@H]2[C@H](COC[C@H](O)CN2Cc2ccccc2F)O1)N[C@H]1CCN(Cc2ccccc2)C1
→ -19	-17
CC(=O)N(C)C[C@@H]1Oc2ncc(-c3ccc(C(=O)N(C)C)cc3)cc2C(=O)N([C@@H](C)CO)C[C@@H]1C
→ 13	20
O=C(Nc1cc(F)ccc1F)N1CCCCN2[C@H](CO)[C@@H](c3ccc(-c4ccncc4)cc3)[C@@H]2C1
→ 3	-3
O=C(NC1CCCCC1)[C@@H]1[C@@H](CO)[C@@H]2Cn3c(cccc3=O)[C@@H]2N1CC1CCCC1
→ -4	4
CCC(=O)N(C)C[C@H]1Oc2cc(C#CCOC)ccc2S(=O)(=O)N([C@H](C)CO)C[C@H]1C
→ 10	1

Carrying on.
Results follow in this order: Vaccinia inh	Vaccinia inh Venus
COc1ccc(NC(=O)Nc2ccc3c(c2)CC(=O)N([C@@H](C)CO)C[C@@H](C)[C@H](CN(C)C(=O)NC2CCCCC2)O3)cc1
→ 17	14
CCC(=O)N(C)C[C@@H]1Oc2cc(C#CC3CCCC3)ccc2S(=O)(=O)N([C@H](C)CO)C[C@H]1C
→ -2	-11
C[C@H](CO)N1C[C@H](C)[C@H](CN(C)C(=O)Nc2ccc(F)cc2)OCc2cnnn2CCCC1=O
→ 12	6
C[C@H]1CN([C@@H](C)CO)C(=O)c2cc(NC(=O)Nc3ccc4c(c3)OCO4)ccc2O[C@H]1CN(C)S(=O)(=O)c1ccc(Cl)cc1
→ -16	-12
CC(C)C#Cc1ccc([C@@H]2[C@H](CO)N3CCCCN(C(=O)c4ccc5c(c4)OCO5)C[C@@H]23)cc1
→ ?	·
C[C@H](CO)N1C[C@H](C)[C@H](CN(C)C(=O)Nc2ccc(F)cc2)OCCCC[C@H](C)Oc2ccc(NC(=O)Nc3ccc(C(F)(F)F)cc3)cc2C1=O
→ -2	0
CCNC(=O)C[C@H]1CC[C@H]2[C@@H](COc3ccc(NC(=O)C4CCCCC4)cc3C(=O)N2C)O1
→ 7	6
C[C@@H]1CN([C@H](C)CO)C(=O)c2cc(C3=CCCC3)cnc2O[C@@H]1CN(C)Cc1ccccc1
→ -9	-11
O=C(C[C@H]1CC[C@H]2[C@@H](COC[C@@H](O)CN2C(=O)Nc2ccccc2)O1)NCc1ccccc1F
→ 19	13
C[C@H]1CN([C@@H](C)CO)C(=O)c2cc(NC(=O)Cc3cn(C)c4ccccc34)ccc2O[C@H]1CN(C)C(=O)Nc1ccc(F)cc1
→ 13	11
